# MARV entry inh: qHTS for inhibitors of binding or entry into cells for Marburg Virus. actives 1.8% (n = 300,000). Marburg virus pseudotyped entry inhibition, cell reporter; control for the full effect not named in the record; about a third of the inactives were read at about 46 µM. AID 540276, 2011. Potency, µM (titrated, usually from 37.8 µM), for the others: at the top dose activity change, negative = inhibition, most hits filed as inhibitors; active = well fitted inhibition curve with a large enough effect; inconclusive = small, poorly fitted or top-dose-only effect, or effect the other way; inactive = flat fitted curve, though single readings scatter; tested in HEK293 cells; about a fifth of its hits are not listed in these tables; note: luciferase read-out
# 2A StopGo: High Throughput Screening for Foot and Mouth Disease Virus Antivirals | human cells with a luciferase reporter of 2A StopGo recoding; control for the full effect not named in the record | Potency, µM (series often up to 57.9 µM), inactives show top-dose signal change, negative = less light | actives 1.2% (n = 410,000); active = well fitted falling curve with a large enough effect; inconclusive = small, poorly fitted or top-dose-only effect; inactive = no such curve, though single readings can be large or run the other way; tested in HEK293T cells; note: nearly all actives have a fitted effect of over 45% in size; luciferase light after 4 h
# RE007 growth inh: qHTS Assay for Inhibitors of the HIV-1 protein Vpr; Potency, µM (titrated, usually from 92.2 µM), inactives show at the highest dose activity change, negative = less growth; actives 0.21% (n = 360,000); AID 651644, 2012; S. pombe RE007 Vpr strain, BacTiter-Glo ATP luminescence, 24 h; control for the full effect not named in the record; active = well fitted falling curve with a large enough effect; inconclusive = small, poorly fitted or top-dose-only effect; inactive = no such curve, though single readings can be large or run the other way;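 note: nearly all actives have a fitted effect of over 50% in size; the assay follows cell death caused by Vpr and the record does not say whether a fall means rescue or toxicity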
#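 Fission yeast strain RE007, carrying one chromosomally integrated HIV-1 vpr copy, was seeded at OD 0.01 in PMG+AL medium with 23 nL pinned compound. After 24 h at 30 °C and 99% humidity, viability was read by BacTiter-Glo luminescence.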
# LASV entry inh: qHTS for Inhibitors of binding or entry into cells for Lassa Virus; Lassa virus pseudotype entry inhibition, cell reporter; control for the full effect not named in the record; Potency, µM (doses to about 37.9 µM), without a hit: top-dose activity change, negative = inhibition, usual class: inhibitors; actives 1.2% (n = 300,000); AID 540256, 2011; active means well fitted inhibition curve with a large enough effect; inconclusive means small, poorly fitted or top-dose-only effect, or effect the other way; inactive means flat fitted curve, though single readings scatter; tested in HEK293 cells; note: nearly all actives have a fitted effect of over 50% in size; luciferase read-out
# The depositor's hits bear a star; ? = inconclusive; / = no result given; [ ] = another dose, or the depositor's remark. % is set by controls: 0 for no effect and ±100 for the full control effect; potency is the fitted concentration of half-maximal effect. These rows are one share of the data; rates above refer to the full screens.
SMILES,MARV entry inh,2A StopGo,RE007 growth inh,LASV entry inh
Clc1ccc(SCc2cc(Cl)nc(-c3ccccc3)n2)cc1,-24%,/,?,4%
CCc1nc2sc(C#N)c(N)c2c2c1CCCC2,-13%,/,1%,15%
COc1ccc(-c2cc(CN3C(=O)c4ccccc4C3=O)on2)cc1,12%,/,121%,4%
O=S(=O)(N/N=C\C=C\c1ccccc1)c1ccccc1,6%,/,5%,3%
COc1cc(OC)nc(Nc2nc(CN)cs2)n1,/,-19%,-8%,/
C[C@@H]1CN([C@@H](C)CO)S(=O)(=O)c2ccc(Br)cc2O[C@H]1CN(C)C(=O)C1CCC1,/,-19%,7%,/
CCc1nc2ccc(C(=O)Nc3ccc(OC)c(OC)c3)cn2c1N(C)Cc1nccs1,/,-12%,?,/
CC(OC(=O)c1cccnc1Cl)C(=O)NC1CCCCC1 (stereo not given),/,-11%,7%,/
O=c1[nH]c2cc(Cl)cc([N+](=O)[O-])c2c2ccc(Cl)cc12,/,-3%,-19%,/
COc1ccc(S(=O)(=O)N2CCOCC2)cc1NC(=O)c1ccc(S(=O)(=O)N(C)c2ccccc2OC)cc1,/,-20%,-7%,/
COc1ccccc1CNc1nc2cc(-c3ccccc3C)sc2c(=O)n1C,/,-10%,-1%,/
O=[N+]([O-])c1ccc2c([N+](=O)[O-])ccc3c2c1CC3,/,-16%,-20%,/
Cc1nc(C(F)(F)F)ccc1C(=O)N1CCC1(C)C(=O)NS(=O)(=O)c1ccc(C#N)cc1 (stereo not given),/,-19%,5%[18.4 µM],/
C=C1CCN([C@@H](CC(C)C)C(=O)NCCC(C)C)S(=O)(=O)c2ccccc21,/,-6%,-2%,/
CC(C)COC(=O)N(C)C[C@@H]1OCc2cnnn2CCCC(=O)N([C@H](C)CO)C[C@@H]1C,/,-7%,3%,/
Cn1cnc(S(=O)(=O)N2CCCCC2c2cc(C(=O)Nc3ccccc3Cl)no2)c1 (stereo not given),/,-16%,-2%,/
CC1(C(=O)Nc2ccc3nc[nH]c3c2)CCN1C(=O)Cc1ccc(-c2ccccc2)cc1 (stereo not given),/,32µM*,-15%,/
CC(=O)Nc1cc(-c2cccc(N)c2)cn2c(-c3ccccc3)cnc12,/,-12%,-12%[18.4 µM],/
COc1ccc(CN2C(=O)c3ccccc3C2(C)c2nc3ccccc3[nH]2)cc1 (stereo not given),/,-7%,1%,/
Cc1cccc(C)c1NC(=O)C1c2ccccc2OCC(=O)N1CC(F)(F)F (stereo not given),/,-12%,-11%,/
Cc1nc(SCC(=O)N2CCNC2=O)c(C#N)c(C)c1C,/,0%,2%,/
CC1CCC(NC(=O)c2ccc(Br)o2)CC1 (stereo not given),/,0%,?,/
COc1ccc(Cl)cc1CC1(C)C(=O)Nc2ccc(-c3ccccc3OC)cc21 (stereo not given),/,-10%,5%,/
COC(=O)C1=CO[C@@H](C)[C@H]2CN3CC[C@]4(C(=O)Nc5ccccc54)[C@@H]3C[C@H]12,/,-15%,8%,/
CN(C)c1ccc(-c2ccnc3c2CC(C)(C(=O)NCc2ccncc2)O3)cc1 (stereo not given),/,-5%,-1%,/
O=C(NC(c1ccc(Cl)cc1)c1cnccn1)C1CCN(Cc2cccc(C(F)(F)F)c2)CC1 (stereo not given),/,-4%,-1%,/
NC(=O)N1CCN(CCCN2c3ccccc3Sc3cc(Cl)ccc32)CC1,/,0%,-4%,/
Cn1c(=O)c2cc(NC(=O)Nc3cccnc3)ccc2n1Cc1ccc(Cl)cc1,/,7%,-21%,/
Cc1ccc(S(=O)(=O)N2[C@H](CC(=O)c3ccc(Cl)c(Cl)c3)OC[C@@H]2C)cc1,/,-21%,-12%,/
Cc1noc(C)c1COc1ccccc1C(=O)N1CCN(S(=O)(=O)c2ccccc2Br)CC1,/,?,-18%,/
C[C@@H]1CN([C@@H](C)CO)S(=O)(=O)c2ccc(Br)cc2O[C@H]1CN(C)C(=O)Nc1ccc(C(F)(F)F)cc1,/,-10%,17%,/
CC1CCCCC1NC(=O)CSc1ncnc2sccc12 (stereo not given),/,-15%,12%,/
O=[N+]([O-])c1ccc(S(=O)(=O)NCC(c2ccc3c(c2)OCO3)N2CCOCC2)cc1 (stereo not given),/,1%,23%,/
CSCCC(C(=O)Nc1c(C)cccc1C)n1c(-c2cnc(C)cn2)nc2ccccc21 (stereo not given),/,-8%,14%,/
CC(C)c1ccc(C(=O)N2CCCC(c3cc(C(=O)Nc4ccccc4Cl)no3)C2)cc1 (stereo not given),/,?,-7%[18.4 µM],/
O=C(CCl)N1c2ccccc2Sc2ccc3ccccc3c21,/,32µM*,-12%,/

# Quoted at random: 2 compounds from above
SMILES,MARV entry inh,2A StopGo,RE007 growth inh,LASV entry inh
O=[N+]([O-])c1ccc(S(=O)(=O)NCC(c2ccc3c(c2)OCO3)N2CCOCC2)cc1 (stereo not given),/,1%,23%,/
CC1CCCCC1NC(=O)CSc1ncnc2sccc12 (stereo not given),/,-15%,12%,/

# (more compounds)
SMILES,MARV entry inh,2A StopGo,RE007 growth inh,LASV entry inh
NC(=O)c1cccc(Nc2nc(C(N)C3CCCCC3)cs2)n1 (stereo not given),/,-23%,-20%,/
Clc1ccccc1-c1ccc2nccn2c1,/,-10%,-11%,/
O=c1[nH]c(=O)n(C2OC(CO)C(O)C2O)c2c1CCCC2 (stereo not given),/,-10%,12%,/
CCc1csc(CNC(=O)C2CCC(=O)N(Cc3cccc(OC)c3)C2)n1 (stereo not given),/,-9%,17%,/
Cc1cc(NC(=O)CS(=O)(=O)c2cn(Cc3cccc(Cl)c3)c3ccccc23)no1,/,-25%,3%,/
O=C(O)c1cc(=O)[nH]c2ccccc12,/,-22%,0%,/
CC1(C(=O)NS(=O)(=O)c2ccccc2Cl)CCN1C(=O)c1cccc(F)c1 (stereo not given),/,0%,13%,/
Cc1ccc([C@H]2C[C@H](O)[C@@H](n3cc(COC(=O)c4ccccc4)nn3)CN2Cc2cccs2)cc1,/,-12%,27%,/
O=C(CC[C@H]1O[C@@H](n2ccc(=O)[nH]c2=O)[C@H](O)[C@@H]1O)NCCCc1ccccc1,/,-29%,1%,/
Cc1ccc(C)c(CC(=O)N2CCCC(c3cc(C(=O)NCc4ccccc4)no3)C2)c1 (stereo not given),/,-4%,0%[18.4 µM],/
O=S(=O)(NN=C1CCCCCCC1)c1ccccc1,/,49%[activator],16%,/
COc1ccc(CN2C(=O)C(CC(=O)NCc3cccs3)CC(C(=O)N3CCOCC3)=C2C)cc1 (stereo not given),/,0%,-4%,/
CCN(CC)C(=O)c1cccc(-c2csc(C(C)(O)c3cccc(F)c3)n2)c1 (stereo not given),/,25µM*,17%,/
COc1ccc(Cl)cc1Cn1c(C)c(C(=O)NCc2cccc(Cl)c2)sc1=O,/,-4%,12%[18.4 µM],/
COc1ccc(NC(=O)N(C)[C@H]2C[C@H]3c4[nH]c5ccccc5c4CCN3C(=O)[C@H]2[C@H](C)O)cc1,/,-3%,0%,/
CN(CCc1ccccc1)C(=O)c1cccc(NC(=O)Cc2cccc(NC(=O)C3CCCN(C(=O)C4CC4)C3)c2)c1 (stereo not given),/,0%,-5%,/
COC1=CC(=O)OC(c2cccc(C(F)(F)F)c2)C1 (stereo not given),/,0%,-9%,/
CC(C)(C)c1ccc(CC(=O)N2CCC2(C)C(=O)NS(=O)(=O)c2cccc(Cl)c2)cc1 (stereo not given),/,-9%,3%,/
CCN1C(=O)[C@H]2[C@@H](c3ccc(C(F)(F)F)cc3)N[C@]3(CCCN(CC4CCCCC4)C3=O)[C@H]2C1=O,/,-18%,15%,/
CCOC(=O)Nc1ccc2c(c1)C(=NNC(=S)NC)c1ccccc1-2,/,-15%,1%,/
CC(C)N1CCCC(C)(C(=O)Nc2nccc3ccccc23)C1 (stereo not given),/,-15%,-3%[18.4 µM],/
O=C(NCc1cccnc1)c1[nH]c(C(F)(F)F)nc1-c1ccccc1,/,-25%,0%,/
CC(C)(C)NC(=O)C(c1ccc(C(F)(F)F)cc1)n1c(=O)c(-c2ccccc2)nc2ccccc21 (stereo not given),/,-22%,-18%,/
Cc1cccc(C)c1-n1nnnc1C(c1cccs1)N1CCC2(CC1)C(=O)NCN2c1ccccc1 (stereo not given),/,-14%,9%,/
COc1cc(NC(=O)c2cc(-c3ccc(F)cc3OC(C)C)n[nH]2)cc(OC)c1OC,/,?,-1%,/
O=C(Nc1cccc(Cl)c1)ON1CCCCC1,/,4%,1%,/
CCn1c(SCC(=O)N2CCC(C)CC2)nc2c([nH]c3ccccc32)c1=O,/,-26%,-8%,/
C[C@H]1CN([C@@H](C)CO)C(=O)CCCn2cc(nn2)CO[C@@H]1CN(C)S(=O)(=O)c1cccs1,/,-24%,-8%,/
O=C(/C=C/[C@H]1O[C@@H](n2ccc(=O)[nH]c2=O)[C@H](O)[C@@H]1O)NCC1CCCO1 (stereo not given in full),/,-16%,45%,/
ON=Cc1ccnc2ccccc12,/,0%,2%,/
O=S1(=O)C[C@@H](N2CCN(c3ccccc3)CC2)[C@H](COCc2ccccc2)N1,/,-9%,2%,/
CCc1nc2c(OCC3COc4ccccc4O3)cccn2c1N(C)C(=O)c1cccs1 (stereo not given),/,0%,-18%,/
CC1(C(=O)O)CCCN1C(=O)c1ccccc1OC(F)(F)F (stereo not given),/,-13%,16%,/
O=C(NCCCN1CCCC1)c1[nH]c(C(F)(F)F)nc1-c1ccccc1,/,-10%,-3%,/
CC(=O)C1=CCC(c2ccc(Cl)cc2)N(S(=O)(=O)c2ccccc2)C1 (stereo not given),/,?,-5%,/
COc1ccc(NC(=O)c2cc(-c3cc(F)ccc3OC(C)C)n[nH]2)c(OC)c1,/,-5%,-3%,/
OC[C@H]1O[C@@H](n2cnc3cc(Cl)c(Cl)cc32)[C@H](O)[C@@H]1O,/,-2%,15%,/
COCCNc1nc(NCCCN(C)C)c2sccc2n1,/,-2%,-16%,/
O=C(NCc1ccccc1)C(c1cc2ccccc2o1)n1c(=O)c(-c2cc3ccccc3[nH]2)nc2ccccc21 (stereo not given),/,20%,3%,/
CCCCN(C=O)c1c(CC)nc2c(OCCOc3ccc(F)cc3)cccn12,/,?,-10%,/
COc1cc2ccc(C(C)=O)cc2cc1OC,/,-3%,?,/
CN1c2ccccc2-c2ccccc2S1(=O)=O,/,-17%,4%,/
Cn1c(=O)n(C)c2cc(CNC(=O)[C@H]3O[C@@H](n4cnc5c(N)ncnc54)[C@H](O)[C@@H]3O)ccc21,/,-13%,6%,/
Cc1cc(C)c(CN2CCN(CCCn3ccc(NC(=O)OCc4ccccc4)nc3=O)CC2)c(C)c1,/,?,4%,/
CC(C)[C@@H]1Cc2[nH]c(=S)[nH]c(=O)c2[C@H](CCc2ccccc2)O1,/,?,2%,/
O=C(NCCO)c1ccc(-c2cnc3cccnn23)cc1,/,10%,11%,/

# Among those listed so far, ten contain a CF3 group:
SMILES,MARV entry inh,2A StopGo,RE007 growth inh,LASV entry inh
Cc1nc(C(F)(F)F)ccc1C(=O)N1CCC1(C)C(=O)NS(=O)(=O)c1ccc(C#N)cc1 (stereo not given),/,-19%,5%[18.4 µM],/
Cc1cccc(C)c1NC(=O)C1c2ccccc2OCC(=O)N1CC(F)(F)F (stereo not given),/,-12%,-11%,/
O=C(NC(c1ccc(Cl)cc1)c1cnccn1)C1CCN(Cc2cccc(C(F)(F)F)c2)CC1 (stereo not given),/,-4%,-1%,/
C[C@@H]1CN([C@@H](C)CO)S(=O)(=O)c2ccc(Br)cc2O[C@H]1CN(C)C(=O)Nc1ccc(C(F)(F)F)cc1,/,-10%,17%,/
COC1=CC(=O)OC(c2cccc(C(F)(F)F)c2)C1 (stereo not given),/,0%,-9%,/
CCN1C(=O)[C@H]2[C@@H](c3ccc(C(F)(F)F)cc3)N[C@]3(CCCN(CC4CCCCC4)C3=O)[C@H]2C1=O,/,-18%,15%,/
O=C(NCc1cccnc1)c1[nH]c(C(F)(F)F)nc1-c1ccccc1,/,-25%,0%,/
CC(C)(C)NC(=O)C(c1ccc(C(F)(F)F)cc1)n1c(=O)c(-c2ccccc2)nc2ccccc21 (stereo not given),/,-22%,-18%,/
CC1(C(=O)O)CCCN1C(=O)c1ccccc1OC(F)(F)F (stereo not given),/,-13%,16%,/
O=C(NCCCN1CCCC1)c1[nH]c(C(F)(F)F)nc1-c1ccccc1,/,-10%,-3%,/

# From PubChem BioAssay
